# Six1-Eya2 inh – Six1/Eya2 interaction inhibition | Q15475+O00167 | AlphaScreen GST-Six1/His-Eya2 binding, biochemical; hits give low values; control for the full effect not named in the record | activity change, % (no concentration beside the values) | hit rate 0.56% among 360,000; in the data active = activity change below about -65%; inconclusive = about -30% to -65%; inactive = above about -30%; note: % is set by controls: 0 for no effect and ±100 for the full control effect; compound concentration not given in the record
#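 Six1/Eya2 binding was read as AlphaScreen signal after compounds were pinned into GST-Six1 plus His-tagged Eya2 (5X stock 250/500 nM) in pH 8.0 Tris/NaCl/TCEP buffer, beads added, then incubated 1 h, 37 C, dark.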
# TRPML1 agonist – agonists of human TRPML1 channel. Q9GZU1. AID 624414. TRPML1-expressing cells, Ca2+ dye fluorescence, FDSS; host cell line not named in the record; reference of the full effect not given here. hit rate 0.12% among 410,000. activation, % (concentration not given with the values); in the data active = activation above about 50%; inconclusive = about 30% to 50%; inactive = below about 30%; note: 0% is about no effect; the text of the record puts the active cut at 80%
# Target sequence (Q9GZU1 whole entry, looked up): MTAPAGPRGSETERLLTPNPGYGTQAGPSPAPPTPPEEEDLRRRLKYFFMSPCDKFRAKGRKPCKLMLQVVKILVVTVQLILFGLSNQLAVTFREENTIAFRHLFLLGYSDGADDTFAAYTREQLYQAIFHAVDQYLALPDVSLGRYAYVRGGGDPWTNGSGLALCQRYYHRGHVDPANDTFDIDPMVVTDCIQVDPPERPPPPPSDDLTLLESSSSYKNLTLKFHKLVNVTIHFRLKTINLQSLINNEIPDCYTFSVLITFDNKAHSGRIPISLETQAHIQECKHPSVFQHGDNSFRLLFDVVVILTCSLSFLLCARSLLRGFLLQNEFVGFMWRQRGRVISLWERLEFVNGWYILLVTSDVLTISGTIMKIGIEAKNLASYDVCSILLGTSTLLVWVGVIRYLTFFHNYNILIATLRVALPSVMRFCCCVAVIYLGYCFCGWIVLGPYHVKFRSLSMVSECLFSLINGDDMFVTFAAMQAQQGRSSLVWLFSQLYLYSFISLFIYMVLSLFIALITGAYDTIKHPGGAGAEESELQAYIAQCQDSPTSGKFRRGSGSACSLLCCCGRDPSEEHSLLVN
#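 Kinetic FDSS Ca2+ read in Tet-induced TRPML1-DL cells (ABD Ca8 dye plus quencher, 45-90 min RT loading): baseline, then compound, then 110 s agonist window; EC80 agonist 54-4 at 4uM final added afterwards for a 110 s antagonist window.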
# TRPML1 inh – blocks the human TRPML1 channel | AID 624415 | TRPML1-inducible cells, Ca2+ dye fluorescence, FDSS; hits give low values; inhibition of EC80 agonist-evoked calcium signal | activity change, negative = inhibition, % (test concentration not listed) | hit rate 0.02% among 390,000 | Q9GZU1; in the data active means activity change below about -50%; inconclusive means about -30% to -50%; inactive means above about -30%;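 note: stimulus is agonist 54-4 at its EC80 concentration; % is set by controls: 0 for no effect and ±100 for the full control effect; compound concentration not given in the record; the text of the record puts the active cut at -80%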
#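 Tet-induced TRPML1-DL cells loaded with Ca8 no-wash calcium dye were read kinetically on FDSS. Compound addition was followed by EC80 agonist 54-4 (4 uM final); inhibition was read over 110 s.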
# D2 ag – agonists of human D2 dopamine receptor (beta-arrestin); P14416; DiscoveRx PathHunter D2 beta-arrestin, luminescence, 90 min; 100% = 57 uM dopamine signal; activation, % (no concentration beside the values); hit rate 0.084% among 360,000; AID 624465; in the data active = activation above about 40%; inconclusive = about 15% to 40%; inactive = below about 15%; note: compound concentration not given in the record; the text of the record calls up to 30% inactive
# Target sequence (P14416 whole entry, looked up): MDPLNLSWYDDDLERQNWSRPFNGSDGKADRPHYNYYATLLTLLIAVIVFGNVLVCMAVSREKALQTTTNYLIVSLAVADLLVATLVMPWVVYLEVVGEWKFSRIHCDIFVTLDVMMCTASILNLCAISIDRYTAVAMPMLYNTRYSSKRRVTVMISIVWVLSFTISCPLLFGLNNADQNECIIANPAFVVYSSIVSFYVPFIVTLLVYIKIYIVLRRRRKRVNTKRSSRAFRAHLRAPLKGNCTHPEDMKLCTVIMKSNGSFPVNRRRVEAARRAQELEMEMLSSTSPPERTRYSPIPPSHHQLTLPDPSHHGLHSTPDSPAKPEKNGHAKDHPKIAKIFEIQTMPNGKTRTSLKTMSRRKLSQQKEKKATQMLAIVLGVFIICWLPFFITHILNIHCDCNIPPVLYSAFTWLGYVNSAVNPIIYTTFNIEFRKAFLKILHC
#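 DiscoveRx PathHunter D2 beta-arrestin cells (2,100/well) attached overnight, then compound-stimulated 90 min at 37 C in HBSS/10 mM HEPES/0.1% Tween-20 buffer; beta-galactosidase complementation read by luminescence after 1 h at ambient temperature. Dopamine 57 uM final (EC100) as control.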
# PINK1 expr mod – PINK1 expression modulation. PINK1 immunofluorescence, high-content cytometry, 24 h. Potency, µM (doses to about 76.6 µM), without a hit: at the highest dose activation (PINK1 increase), actives largely listed as activators. hit rate 0.2% among 410,000. AID 624263; active = well fitted activation curve with a large enough effect; inconclusive = small, poorly fitted or top-dose-only effect; inactive = flat fitted curve, though single readings scatter; cell line not stated here;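 note: potency is the fitted concentration of half-maximal effect; % of control where 0% means no effect; nearly all actives have a fitted effect of over 65% in size; a mitochondrial uncoupler was the plate control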
#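 PINK1 protein, normally rapidly degraded, was detected by immunofluorescence after 24 hour compound treatment of a stable cell line. Titration data (5 concentrations) came from laser-scanning cytometry, with CCCP-treated wells as controls.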
# D2 PAM – potentiates the human D2 dopamine receptor allosterically | P14416 | DiscoveRx D2 beta-arrestin cells, luminescence, 90 min; 100% = 57 uM dopamine signal | potentiation, % (test concentration not listed) | hit rate 0.23% among 360,000 | AID 624464; active = potentiation of 50% or more; inconclusive = 30% to 50%; inactive = 30% or less;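 note: compound concentration not given in the record; tested on top of an EC20 dose of dopamine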
#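 D2 cells co-treated with compound plus 50 nM dopamine (EC20) for 90 min at 37 deg C to detect potentiation. Beta-arrestin recruitment was read as enzyme-fragment luminescence after 1 h at ambient temperature. Full response was set by 57 uM dopamine.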
# An asterisk follows results filed as active; ? = inconclusive; . = not tested or not shown; & = joins results of further samples; [ ] = another dose, or the depositor's remark. An unsorted share of the library; any-hit rate near 1%.
SMILES,Six1-Eya2 inh,TRPML1 agonist,TRPML1 inh,D2 ag,PINK1 expr mod,D2 PAM
O=C(N[C@@H](Cc1ccccc1)C(=O)NCc1ccc(F)cc1)C1CCNCC1,3,4.1,6,2.2,-1.8%,-7
O=C(CCOc1ccccc1F)N1CCN(c2ccccc2O)CC1,5,0.3,9,7.8,0.2%,7
CC(C)c1ccc(NC2CCCN(C(=O)c3ccnn3C)C2)cc1 (stereo unspecified),0,0.0,20,-1.8,1.0%,18
O=C1C2C3C=CC(C3)C2C(=O)N1Nc1ccccc1 (stereo unspecified),2,0.9,7,-1.3,-0.7%,-3
Cc1ccc(S(=O)(=O)NC(=O)C2(C)CCN2C(=O)Cc2ccc(C(C)(C)C)cc2)cc1 (stereo unspecified),2,-0.3,.,-2.1,0.3%,1
COc1ccc(-c2noc(N3CCC(C(=O)Nc4ccc(OC)cc4OC)CC3)n2)cc1,-1,2.1,11,-1.3,3.6%,-5
CCN(C(=O)COC(=O)CSc1ccc(F)cc1)c1c(N)n(Cc2ccccc2)c(=O)[nH]c1=O,-2,0.3,8,-1.7,2.7%,-1
CCOc1ccc(Nc2nc(N)c(C(=O)c3ccccc3Cl)s2)cc1,.,1.1,26,.,1.0%,.
COc1ccc(N2CC(C(=O)Nc3nnc(SCC(=O)N4CCCC4)s3)CC2=O)cc1 (stereo unspecified),1,-0.4,8,-1.9,-0.3%,-6
O=C1CCC[C@@H]2C[C@@]3(C[C@@H]4CCN1[C@H]24)Nc1cc([N+](=O)[O-])ccc1NC3=NC1CCCCC1,-3,1.1&2.1,1,0.1,6.5%,-70
Cc1ccc(-c2csc(C(C#N)=C3CCCC3)n2)cc1,0,0.4,-7,-0.2,3.2%,0
Cc1sc(NC(=O)C2C3CCC(O3)C2C(=O)O)nc1-c1ccc(CC(C)C)cc1 (stereo unspecified),-7,2.8,30,-2.3,14%,-11
O=C(Nc1nnc(SCC(=O)N2CCCC2)s1)C1CC(=O)N(c2ccc(F)cc2)C1 (stereo unspecified),5,1.0,-5,-2.1,-1.3%,-19
COc1cccc(/C(O)=C2/C(=O)C(=O)N(Cc3ccco3)C2c2ccncc2)c1 (stereo unspecified),0,0.0,-8,-1.6,-2.4%,-4
COCC(C)n1c(COc2ccccc2F)nnc1SCc1c(C)noc1C (stereo unspecified),1,-0.1,10,-2.4,-1.6%,-1
CC(=O)Nc1nc(C)c(S(N)(=O)=O)s1,2,-1.2,-14,1.7,-0.3%,5
NC(=O)COC(=O)c1cccc(NS(=O)(=O)/C=C/c2ccccc2)c1,1,0.0,-2,-0.1,2.3%,-12
Nc1nnc(SCc2nc3scc(-c4ccccc4)c3c(=O)[nH]2)s1,18,2.4,-8,-1.2,3.4%,-2
CC(C)(C)c1ccc(CNC(=O)c2ccc3c(c2)NC(=O)CO3)cc1,12,1.7,-8,-5.8,-1.1%,-6
C#CCOC(=O)Nc1ccc(OCC(F)(F)F)nc1,0,-0.7,15,1.6,5.5%,-1
CCOC(=O)/C=C1\CC(C(=O)OCC)Oc2ccccc21 (stereo unspecified),13,-0.3,-10,-1.6,-0.8%,.
CC(C)c1ccc(C(=O)Nc2ccc(N3CCOCC3)cc2)cc1,4,0.3,-2,0.3,13%,-21
CCN(C(=O)COC(=O)/C=C/c1c(C)nn(-c2ccccc2)c1C)C1CCS(=O)(=O)C1 (stereo unspecified),-7,-0.4,-4,-2.7,1.8%,3
COc1ccccc1Nc1nnc(SCc2nnc(-c3cc(OC)c(OC)c(OC)c3)o2)s1,-15,2.1,-26,-1.2,1.3%,-9
Cc1ccc(-c2nc(C#N)c(NCc3ccco3)o2)cc1,-11,-0.6,-10,-3.7,1.0%,-10
CNC(=S)N/N=C/c1cn(CCOc2ccccc2OC)c2ccccc12,-25,1.5,-24,2.6,2.1%,7
C=C(C)CC(NCCc1ccccc1)c1ccco1 (stereo unspecified),-1,0.0,-22,-1.1,0.4%,-6
S=C1NCCOCCOCCNC(=S)N2CCOCCOCCN1CCOCCOCC2,-2,0.0,-23,-0.1,1.5%,-4
COc1ccc(-n2nc(C(=O)NCC(=O)NCCCN3CCN(C)CC3)c3ccccc3c2=O)cc1,-18,0.5,14,-2.8,1.6%,6
CCc1ccccc1NC(=O)Cn1c(=O)n(CC2CCC(C(=O)NCCc3ccccc3)CC2)c(=O)c2ccccc21 (stereo unspecified),.,0.8,-2,.,5.8%,.

# Continued (3 carried over from the part before).
SMILES,Six1-Eya2 inh,TRPML1 agonist,TRPML1 inh,D2 ag,PINK1 expr mod,D2 PAM
S=C1NCCOCCOCCNC(=S)N2CCOCCOCCN1CCOCCOCC2,-2,0.0,-23,-0.1,1.5%,-4
COc1ccc(-n2nc(C(=O)NCC(=O)NCCCN3CCN(C)CC3)c3ccccc3c2=O)cc1,-18,0.5,14,-2.8,1.6%,6
CCc1ccccc1NC(=O)Cn1c(=O)n(CC2CCC(C(=O)NCCc3ccccc3)CC2)c(=O)c2ccccc21 (stereo unspecified),.,0.8,-2,.,5.8%,.
CCOC(=O)C1CCN(Cc2cccc(Oc3ccccc3)c2)CC1,5,-0.4,22,?,13%,-22
COc1ccc(NC(=O)c2ccc(COCC(F)(F)C(F)F)cc2)cc1OC,-5,1.5,-7,-4.0,0.1%,-21
O=C(c1ccc(OCc2cn3ccccc3n2)cc1)N1CCN(S(=O)(=O)c2ccccc2F)CC1,-11,1.7,6,9.9,2.2%,25
O=C(CCn1nnnc1CN1CCOCC1)N1CCC(c2ccccc2F)C1 (stereo unspecified),7,0.8,-8,-4.1,1.1%,-15
COCC1CCN(Cc2cn(Cc3ccccc3)nc2-c2cc3ccccc3o2)CC1,-4,0.9,20,-3.5,2.1%,-7
Clc1ccc(-c2nnc(SCc3nc(-c4ccccc4)no3)o2)cc1,3,0.4,0,-4.8,5.9%,-3
COc1ccc(S(=O)(=O)N2CCCC2)cc1C(=O)N1CCCCC1,10,0.4,-19,1.5,-0.9%,-11
CN(CCc1ccccn1)C(=O)CCc1nnc(CCCc2ccccc2)o1,1,13,-1,-4.0,-0.8%,-10
CN=C1S/C(=C/c2cn(CC(=O)OC)c3ccccc23)C(=O)N1C,4,-0.8,2,-4.9,3.2%,-6
CCn1cc(CN2CCC(n3nccc3NC(=O)CCc3ccccc3)CC2)cn1,0,-0.3,5,-2.0,1.6%,-12
CCCC1(c2ccccc2)NC(=O)N(CC(=O)NCC2COc3ccccc3O2)C1=O (stereo unspecified),4,0.4,-4,0.3,6.2%,-20
Brc1ccc(NCc2nnc3n2CCCCC3)cc1,-5,-0.3,-3,-3.0,.,-7
CC(C)NC(=O)C1CCN(C2CCN(Cc3nc4ccccc4s3)CC2)CC1,1,0.3,3,-4.4,2.8%,-3
CCCC(=O)NC(=S)Nc1cccc(Cl)c1N1CCCCC1,0,1.7,-8,-0.1,26%[38.3 µM],-1
CC(=O)c1c(C)[nH]c(C(=O)COC(=O)C2CC2)c1C,2,0.9,-15,1.5,1.8%,1
CS(=O)(=O)c1ccc2nc(NC(=O)CN3CCCCCC3)sc2c1,5,0.5,-2,-1.4,1.3%[38.3 µM],-10
CCOCCC(=O)Nc1ccc2c(c1)c(=O)n(C)n2Cc1cccc(C(F)(F)F)c1,0,-0.5,.,4.0,-0.1%,0
O=C1CC(C(=O)NC2CCCCC2)C(c2ccccc2)O1 (stereo unspecified),2,-0.3,2,-4.2,2.0%,-7
CC(=O)c1ccc(NC(=O)C(C)OC(=O)c2cccc(-n3cnnn3)c2)cc1 (stereo unspecified),5,-1.0,5,0.1,-1.5%,-18
Cc1nn(-c2ccccc2)c(Cl)c1/C=N/O,2,1.2,22,1.5,-0.9%,-2
Cc1ccc(NC(=S)/C(C#N)=C2/Nc3ccccc3S2)cc1,12,-0.4,27,-7.3,?,-44
O=C(CSc1nnc(-c2ccoc2)o1)N1CCOCC1,8,0.4,-2,-0.8,0.7%,0
O=c1c2ccccc2nc(SCc2ccccc2)n1Cc1ccco1,0,1.8,3,-5.1,-0.2%,-17
Cc1cc(C)n(Cc2ccc(C(=O)Nc3ccc(Br)cc3C)o2)n1,12,1.8,-6,-9.2,-0.8%,-6
CCC(C)(NC=O)C(=O)Nc1c(C)cccc1C (stereo unspecified),6,-0.2,8,-0.5,-0.9%,-7
Cc1nc(NC(=O)CN2CCN(c3cccc(Cl)c3)CC2)sc1C(=O)N(C)C,13,0.1,-3,-2.3,-0.3%,-27
Cn1nc(C(=O)Nc2cccc(C(F)(F)F)c2)ccc1=O,-1,-0.3,1,-2.1,-0.6%,-12
Nc1cc(=O)[nH]c(SCCSc2cc(Cl)ccc2Cl)n1,-2,0.7,38,4.6,2.2%,5
Cc1ccc(C)c(NC(=S)N2CCC(C(=O)c3ccc(F)cc3)CC2)c1,-7,-0.4,4,-2.3,0.7%,-24
COc1ccc(NC(=O)c2cc([N+](=O)[O-])ccc2NC(=O)CNCc2ccccn2)c(OC)c1,?,-0.5,-8,0.2,5.3%,1
CCCCNS(=O)(=O)c1ccc(N2CCCCS2(=O)=O)cc1,.,-0.7,20,.,0.2%,.
CC(C)N1CCN(c2ccncc2S(=O)(=O)N2CCCCC2)CC1,-4,-0.2,9,-2.7,0.3%,-2
CNC(=O)c1ccc2nc(NC(C)=O)sc2c1,-5,0.6,4,1.7,.,-8
CC(C)CNc1oc(-c2ccccc2Cl)nc1C#N,-5,0.3,3,0.4,9.9%,-2
COc1ccc(-c2cc(C)no2)cc1S(=O)(=O)N1CCCN(Cc2ccccc2Cl)C1,-7,0.5,61,-3.3,3.0%,-18
Cc1ccccc1OCCNC(=O)c1ccco1,10,0.9,12,-2.8,2.6%,-5
CNC(=S)NNC(=O)c1ccc(N(C)C)cc1,-1,0.6,-7,-1.0,-1.0%,-3
CCOC(=O)c1ccccc1NC(=O)CCc1c(C)nc2ncnn2c1C,.,-0.9,7,.,1.1%,.

# Seven records drawn at random from the list so far:
SMILES,Six1-Eya2 inh,TRPML1 agonist,TRPML1 inh,D2 ag,PINK1 expr mod,D2 PAM
Cc1nn(-c2ccccc2)c(Cl)c1/C=N/O,2,1.2,22,1.5,-0.9%,-2
CCOC(=O)c1ccccc1NC(=O)CCc1c(C)nc2ncnn2c1C,.,-0.9,7,.,1.1%,.
CS(=O)(=O)c1ccc2nc(NC(=O)CN3CCCCCC3)sc2c1,5,0.5,-2,-1.4,1.3%[38.3 µM],-10
CC(C)NC(=O)C1CCN(C2CCN(Cc3nc4ccccc4s3)CC2)CC1,1,0.3,3,-4.4,2.8%,-3
COCC1CCN(Cc2cn(Cc3ccccc3)nc2-c2cc3ccccc3o2)CC1,-4,0.9,20,-3.5,2.1%,-7
NC(=O)COC(=O)c1cccc(NS(=O)(=O)/C=C/c2ccccc2)c1,1,0.0,-2,-0.1,2.3%,-12
C#CCOC(=O)Nc1ccc(OCC(F)(F)F)nc1,0,-0.7,15,1.6,5.5%,-1
